LANA-H2A inh = blocks KSHV LANA binding to histone H2A/H2B; inhibition, % (test concentration not listed); cell-free LANA-H2A/H2B peptide, fluorescence polarization; Q9QR71; 320,000 tested, 0.6% active; in the data active = inhibition mostly above about 10%, no sharp cut-off; inactive = mostly below about 6.7%;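 note: stock transfer was 7.5 nL into about 10 µL; 0% = median of vehicle wells and 100% = median of positive control wells; one replicate is shown; the record names a cut of 25% in any replicate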
Calb FLC = affects C. albicans growth with fluconazole | C. albicans CaCi-2 (fluconazole-resistant clinical isolate) + fluconazole, Alamar Blue growth, 48 h | growth inhibition, % (concentration not given with the values) | 300,000 tested, 0.57% active | AID 1979;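 active = most replicates above 75%; inconclusive = exactly half above 75%; inactive = most below 75%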;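 note: all wells also contain fluconazole at 8 µg/ml as a sub-toxic cotreatment; 0% = median of DMSO wells and 100% = median of geldanamycin control wells; wells of about 8 µL received 7.5 nL stock; the first replicate is given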
A1 inh = inhibitors of the anti-apoptotic protein A1, read as caspase activation; MEF A1-2A-BIM cells, Caspase-Glo 3/7 luminescence, 3 h; percent of clofoctol response, vehicle zero; caspase activation, % (no concentration beside the values); 330,000 tested, 0.066% active;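 active = over half of replicate activation scores above 10%, or exactly half above 10 with the replicate mean above 10; inconclusive = replicate mean below 10 yet half the replicates above 10; inactive = over half of replicates below 10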;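 note: wells of about 30 µL received 50 nL stock; many hits fall short of the cut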
MLL AF4-AF9 inh = blocks AF4 peptide binding to human AF9; P42568; AlphaScreen, biotin-AF4 peptide binding to FLAG-AF9; inhibition, % at 10 µM; 350,000 tested, 0.47% active; AID 651704;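 active = every replicate reaching a set inhibition limit, whatever the replicate mean, cut at about 25% in these data; inconclusive = mean inhibition reaches that limit but some replicates miss it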;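 note: 0% = plate neutral control median and 100% = total signal loss; the record names both 10 and 1 µM as test concentration; the first replicate is given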
Target sequence (P42568 whole entry, looked up): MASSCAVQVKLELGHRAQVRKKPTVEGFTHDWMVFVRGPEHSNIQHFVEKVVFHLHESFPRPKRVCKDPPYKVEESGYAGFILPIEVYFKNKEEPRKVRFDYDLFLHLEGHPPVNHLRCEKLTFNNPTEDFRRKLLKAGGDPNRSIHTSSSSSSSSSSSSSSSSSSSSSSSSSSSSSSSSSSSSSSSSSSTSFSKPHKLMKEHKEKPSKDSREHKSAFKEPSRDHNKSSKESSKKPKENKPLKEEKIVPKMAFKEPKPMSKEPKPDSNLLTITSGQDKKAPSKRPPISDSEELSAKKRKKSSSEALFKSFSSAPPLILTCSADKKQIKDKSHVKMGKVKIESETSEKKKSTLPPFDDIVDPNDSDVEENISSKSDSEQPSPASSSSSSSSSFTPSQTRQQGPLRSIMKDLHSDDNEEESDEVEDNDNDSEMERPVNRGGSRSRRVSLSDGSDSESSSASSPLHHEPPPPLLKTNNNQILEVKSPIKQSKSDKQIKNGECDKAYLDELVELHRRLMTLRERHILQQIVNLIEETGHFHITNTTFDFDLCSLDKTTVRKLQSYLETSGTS
Vif TR-FRET = HIV-1 Vif–A3G interaction blockers – biochemical, TR-FRET, GST-Vif 1-94, biotin-A3G peptide, dose response retest, primary screen (AID 1117319); TR-FRET GST-Vif / biotin-A3G peptide binding; higher % means a stronger effect; test concentration not given here; strong numbers were not always called active; one-dose inhibition, %; IC50 in µM for titrated hits; 260,000 tested, 0.57% active;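 active = above the screen mean plus three standard deviations and confirmed in dose response; inconclusive = results disagree or hit not tested in dose response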;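 note: Vif residues 1-94 fused to GST binding biotinylated APOBEC3G peptide 110-148; 0% = full assay without inhibitor and 100% = GST in place of GST-Vif; retest series ran down from 100 µM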
Beta apoptosis = beta cell apoptosis inhibition; INS-1E cytokine-induced death, ATP luminescence, 48 h; percent of positive-control rescue, neutral wells zero; protection from apoptosis, % (concentration not given with the values); 300,000 tested, 0.8% active; AID 435005;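 active = all replicates at 75% or more, or half of them and the mean; inconclusive = half reach 75% but not the mean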;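 note: 0% = cytokine-treated negative control wells and 100% = positive control rescue; higher means more ATP so stronger rescue from cytokine killing; wells of about 40 µL received 100 nL stock; the first replicate is given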
T cruzi repl = T. cruzi replication inhibition; T. cruzi beta-gal in NIH3T3, luminescence, 90 h; inhibition, % (no concentration beside the values); 300,000 tested, 1.4% active; AID 1885;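 active = mean inhibition across valid replicates above about 55%, limit read from the data; inconclusive = mean below that limit but half or more replicates reach it; inactive = mean below it, under half of replicates reach it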;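 note: signal also drops with host cell toxicity which is not excluded here; 0% = plate median of DMSO wells and 100% = zero luminescence signal; higher percent means less beta-gal luminescence so fewer parasites; stock transfer was 50 nL into about 50 µL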
RanGTP-Imp inh = disruptors of Ran-importin-beta complex formation – biochemical, FRET, CFP-Ran, YFP-importin-beta, homogeneous, primary screen. inhibition, % (concentration not given with the values). 300,000 tested, 1.1% active. AID 2216. cell-free CFP-Ran/YFP-importin-beta FRET ratio;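 active = most replicates above 15%; inconclusive = exactly half above 15%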;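 note: 0% = DMSO wells and 100% = Ran loaded with GDP instead of GTP; wells of about 40 µL received 100 nL stock; the first replicate is given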
* hit, by the source's call; i = inactive; ? = inconclusive; nt = not tested or not shown; & = joins results of further samples.

SMILES	LANA-H2A inh	Calb FLC	A1 inh	MLL AF4-AF9 inh	Vif TR-FRET	Beta apoptosis	T cruzi repl	RanGTP-Imp inh
COc1ccc(OCCN2CCN(C3CC(=O)N(CCC(C)C)C3=O)CC2)cc1 (stereo not given)	2.9	-7	0.8	nt	-3%&3%	-9	33	0.5
O=C(NNC(=O)c1ccccc1[N+](=O)[O-])Nc1ccccc1C(F)(F)F	3.5	15	0.4	-0.5	-10%	-2	-6	0.1
CCn1c(SCC(=O)Nc2ccc(C)cc2)nnc1-c1ccc(O)cc1	-2.7	?	0.2	nt	-3%	-2	8	1.2
O=C(c1ccoc1)N1CCCC(N2CCN(c3cccc(Cl)c3)CC2)C1 (stereo not given)	2.5	-5	-1.7	2.1	nt	-2	7	-0.7
Cc1cccc(C)c1NC(=O)c1cc(S(=O)(=O)N2CCOCC2)ccc1F	3.1	-5	0.3	nt	1%	nt	-15	1.8
CCN(C(=O)COC(=O)c1[nH]c(C)c(C(C)=O)c1C)C1CCS(=O)(=O)C1 (stereo not given)	-0.9	3	0.2	nt	-4%	-15	-6	1.9
COC(=O)c1ccc(NC(=O)CCn2c(=O)oc3ccccc32)cc1	2.9	-3	-1.5	nt	-4%	-4	13	2.3
CC(=O)[C@@]1(O)CC[C@H]2[C@@H]3CCC4=CC(=O)CC[C@]4(C)[C@H]3CC[C@@]21C	8.1&1.7	nt	0.5	-3.4	74%	nt	4	1.5
O=C1NC(=Nc2ccccc2Cl)S/C1=C\c1ccc(C(=O)O)cc1	-0.3	-3	-1.0	-18	-3%	-5	3	-1.4
CN(C)/C=C/C(=O)c1ccc(Br)s1	4.4	-13	-0.4	-0.5	nt	-4	1	-3.6
Cc1ccc(Cn2nnc3c(=O)n(CC(=O)N4CCN(c5ccccc5)CC4)cnc32)cc1	0.6	-9	-1.4	0.7	4%	4	0	8.8
CSCC[C@H](NC(=O)[C@@H]1Cc2ccccc2CN1)C(=O)Nc1cccc(C)c1	0.5	-2	-1.6	5.1	nt	-4	3	5.7

Arranged by length of the SMILES (lowest first): part of the list above.
SMILES	LANA-H2A inh	Calb FLC	A1 inh	MLL AF4-AF9 inh	Vif TR-FRET	Beta apoptosis	T cruzi repl	RanGTP-Imp inh
CCn1c(SCC(=O)Nc2ccc(C)cc2)nnc1-c1ccc(O)cc1	-2.7	?	0.2	nt	-3%	-2	8	1.2
COc1ccc(OCCN2CCN(C3CC(=O)N(CCC(C)C)C3=O)CC2)cc1 (stereo not given)	2.9	-7	0.8	nt	-3%&3%	-9	33	0.5
Cc1ccc(Cn2nnc3c(=O)n(CC(=O)N4CCN(c5ccccc5)CC4)cnc32)cc1	0.6	-9	-1.4	0.7	4%	4	0	8.8

(more compounds)
SMILES	LANA-H2A inh	Calb FLC	A1 inh	MLL AF4-AF9 inh	Vif TR-FRET	Beta apoptosis	T cruzi repl	RanGTP-Imp inh
COc1cc2cc(CN(CCN3CCCC3)C(=O)Nc3ccc(F)cc3)c(=O)[nH]c2cc1OC	-1.1	nt	-0.4	nt	4%	-2	nt	nt
COc1cc(OC)cc(C(=O)NCCSc2c[nH]c3ccccc23)c1	1.7	1	-1.2	2.1	nt	2	-5	-1.3
Oc1ccc(-c2onc3ccc(Cl)cc23)cc1	3.1	-31	-0.5	nt	19%	2	-3	-32
CC(=O)c1c(C)[nH]c(C(=O)OCC(=O)Nc2ncc(Cl)c(C)c2Cl)c1C	2.3	7	0.3	nt	-56%	-3	7	-0.9
CCOC(=O)c1c(C)[nH]c(C(=O)COC(=O)CNS(=O)(=O)c2ccc(C)cc2)c1C	i	nt	-0.5	-3.8	1%	-5	nt	nt
CN(C)CCNc1cnn(-c2ccccc2)c(=O)c1Cl	8.5	1	0.7	-0.9	nt	0	34	1.1
CSc1ncc(C(=O)NCCCc2ccccc2)c(C)n1	5.7	-1	0.2	1.0	-2%	0	3	-1.0
COc1cc(C2C(C#N)=C(N)OC3=C2C(=O)CCC3)cc(OC)c1OC(=O)N1CCOCC1 (stereo not given)	-0.1	3	-0.4	nt	-4%&-10%	-2	-1	-2.6
CO/N=C/c1ccc(OC)c(Oc2nc(OC)cc(OC)n2)c1	-2.1	6	0.2	0.6	nt	-2	-4	-1.1
COc1ccc(O)c(/C=C(\C#N)C(=O)Nc2ccccn2)c1	nt	0	nt	0.1	-3%	nt	-9	?
CCN(CC)S(=O)(=O)c1ccc(N2CCOCC2)c(NC(=O)CCC2CCCCC2)c1	4.1	-8	-1.7	nt	-10%	7	5	-2.9
Cc1cc(C)n(CCCO)c(=O)c1C#N	-6.7	5	0.2	nt	-7%	-1	-13	?
CC(C)c1nc2cc(C(=O)N(C)Cc3ccc(F)cc3)ccc2o1	-4.9	-10	-1.1	-7.7	nt	-5	4	0.3
COc1ccccc1-n1c(SCC(=O)Nc2ccc(NC(C)=O)cc2)nc2c([nH]c3ccccc32)c1=O	-1.7	-7	-0.3	-1.7	-11%	-3	6	1.3
CC(C)Oc1ccc(C(CC(=O)O)NC(=O)C(Sc2ccccc2)c2ccccc2)cc1 (stereo not given)	-2.5	-7	-0.2	-2.0	-1%	1	9	0.1
CC(C)CCNC(=O)C1(O)c2ccccc2NC(=O)N1c1ccc(Cl)cc1 (stereo not given)	2.9	-2	-0.1	-0.7	-1%	3	6	0.1
COc1ccc(NC(=O)C2CCCN(S(=O)(=O)c3cccc4nonc34)C2)cc1OC (stereo not given)	-3.5	1	0.3	0.2	11%	-7	3	?
O=C(CN(C(=O)CCC(=O)Nc1nccs1)c1ccc(F)cc1)NCc1ccc2c(c1)OCO2	1.0	8	0.3	0.8	-7%	-3	-1	3.4
COc1ccc(/C=N/n2cncn2)cc1Cn1cc([N+](=O)[O-])cn1	3.9	-11	0.0	-0.6	-3%	-15	-5	0.0
Cc1ccc(NS(=O)(=O)c2ccc3c(c2)oc(=O)n3C)c(C)c1	-0.8	4	0.3	1.3	3%	3	-5	5.9
O=C(O)C1SCCN1S(=O)(=O)c1ccc(N=NN2CCOCC2)cc1 (stereo not given)	-2.9	-3	0.0	-2.1	nt	5	-14	-4.2
CN1CCN(c2ccc(NC(=O)c3ccccc3)cc2)CC1	2.0	-5	-4.8	1.3	3%	nt	-3	-6.4
c1ccc(-c2nnc3sc(-c4cc5ccccc5o4)nn23)cc1	-2.1	8	-1.1	nt	-4%	0	1	-1.7
CC1CC1C(=O)N(C)CC(=O)Nc1cccc(F)c1 (stereo not given)	-1.9	5	0.4	-1.7	3%	1	-10	-4.3
CC(C)C(=O)NC(CC(=O)O)c1ccccc1 (stereo not given)	1.2	5	0.1	2.5	13%	1	1	1.0
O=C(NCc1ccccn1)C1CCN(S(=O)(=O)c2cnc[nH]2)CC1	5.2	-2	1.4	nt	12%	-3	-9	1.9
COC(=O)C1=C(N)Oc2cc(C)n(CCCn3ccnc3)c(=O)c2C1c1cccc(Cl)c1 (stereo not given)	-0.1	3	-0.1	nt	nt	3	7	2.4
COc1ccc(N(C)S(=O)(=O)c2cccc(C(=O)NC3CCCCC3C)c2)cc1 (stereo not given)	-0.2	?	-0.5	0.4	-3%	nt	9	?
Cc1ccc(CSCC(=O)NCc2cccnc2)cc1	1.2	-5	0.1	1.9	4%	-16	-6	2.3
NC(=O)CSc1nnc(-c2ccncc2)n1CCc1ccccc1	-0.8	0	0.6	nt	2%	2	-2	1.8
Cc1cc(C(=O)NC2CCCc3c2cnn3-c2ccc(C)c(C)c2)nc(C)n1 (stereo not given)	-2.6	22	1.3	-0.3	nt	-14	-4	8.3
NS(=O)(=O)c1ccc(NC(=O)C(=O)NCCC(=O)O)cc1	-1.9	-5	0.0	-4.4	-2%	1	-8	0.5
COc1ccc(OC)c(S(=O)(=O)Nc2ccc(Oc3ccccc3)cc2)c1	2.0	-8	0.8	nt	2%	17	-30	0.6
COc1cc(N=C(N)N=C(N)N)cc(OC)c1	2.6	8	0.6	3.6	14%	nt	-10	0.5
Cc1ccc(C(=O)O/N=C2/CC3CCC2(C)[C@@]3(C)CBr)cc1 (stereo not given in full)	0.1	13	0.3	nt	-9%	-11	-5	24
O=c1cc(C(F)(F)F)nc(-c2cccnc2)[nH]1	-0.4	1	0.3	-2.5	-2%	3	-10	-2.1
O=C(Nc1ccc2c(c1)OCCO2)C1CCCN1S(=O)(=O)c1ccc(Cl)cc1 (stereo not given)	1.8	4	-0.2	nt	5%	-5	-15	-1.0
COc1cccc2cc(S(=O)(=O)c3ccccc3)c(=Nc3ccc4c(c3)OCCO4)oc12	-1.9	2	-0.1	nt	16%	0	21	3.2
COc1cccc2cc(-c3ccccc3)c(=O)oc12	3.6	-26	-10	4.8	-1%	7	-50	5.2
Cc1cc(C)n(-c2ccc(Cl)c(C(=O)Nc3cc(C(F)(F)F)ccc3Cl)n2)n1	-4.0	4	0.7	nt	20%	-3	1	2.0
CC1CCCCN1c1nnc(NC(=O)c2cc(-c3ccc(Br)cc3)on2)s1 (stereo not given)	-3.8	1	-0.3	3.7	-1%	-6	-12	-3.9
Cc1ccnc(N2CCC(C(=O)NCc3ccc4c(c3)OCO4)CC2)n1	1.5	-25	-1.2	nt	-18%	-4	-12	-4.9
Cc1noc(NS(=O)(=O)c2ccc(NC(=O)COc3ccccc3)cc2)c1C	-1.2	-5	-0.8	nt	1%	2	1	2.1
CCOC(=O)c1[nH]c(C)c(C(=O)Nc2ccccc2F)c1C	0.5	0	0.0	nt	30%	-3	-21	1.0
COc1ccc(CCN=Cc2ccccc2O)cc1OC	0.0	-28	-1.0	5.0	5%	-10	1	11
COc1ccc(-c2cc(=O)oc3cc(OC(C)C(=O)NC(Cc4c[nH]c5ccc(O)cc45)C(=O)O)ccc23)cc1 (stereo not given)	3.5	1	0.4	-3.8	nt	-6	1	3.0
O=C(NCc1ccco1)C(=O)c1c[nH]c2ccccc12	-1.2	-14	-0.6	2.3	nt	1	7	3.7
O=C(COc1ccccc1)N1CCN(S(=O)(=O)c2cccc([N+](=O)[O-])c2)CC1	-1.1	-13	0.3	-5.0	-3%	-4	11	0.7
O=C(Nc1ccc(F)cc1)Nc1nnc(Cc2ccccc2)s1	3.4	-6	1.3	2.3	-6%	4	9	3.9
COc1cccc(-c2nnc3sc(C4CCCCC4)nn23)c1	-1.8	5	0.3	nt	-12%	-12	21	-0.8
Cc1ccc(S(=O)(=O)n2[nH]c(=O)c(CCO)c2C)cc1	0.0	-10	0.4	-0.9	7%	1	-3	-0.3
CN1CCN(CCC(=O)Nc2ccc(F)c(F)c2)CC1	-3.8	0	-0.2	nt	4%	-7	8	-0.6
Cc1nc(SCC(=O)Nc2c(C)n(C)n(-c3ccccc3)c2=O)nc(C)c1C	-3.6	-4	0.1	nt	1%	-7	-9	1.0
O=C(CNC1CCN(Cc2ccccc2)CC1)Nc1ccc(S(=O)(=O)N2CCCCC2)cc1	-0.5	-7	0.0	11	-7%	6	55*	-6.5
CCc1ccc(C(=O)N2CCN(c3ccc(NC(=O)c4cccnc4)cc3)CC2)cc1	-3.2	-10	2.2	3.8	nt	3	1	4.8
